# High-throughput results (PubChem)
# RE007 growth inh: less growth of the S. pombe RE007 Vpr strain | S. pombe RE007 Vpr strain, BacTiter-Glo ATP luminescence, 24 h; control for the full effect not named in the record | Potency, µM (top dose mostly 92.2 µM), for inactives: at the highest dose activity change, negative = less growth | 0.21% of 360,000 active; active = well fitted falling curve with a large enough effect; inconclusive = small, poorly fitted or top-dose-only effect; inactive = no such curve, though single readings can be large or run the other way;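 also: % is scaled to controls: 0 for no effect and ±100 for the full control effect; nearly all actives have a fitted effect of over 50% in size; the assay follows cell death caused by Vpr and the record does not say whether a fall means rescue or toxicity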
#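 Fission yeast strain RE007, carrying one chromosomally integrated HIV-1 vpr copy, was seeded at OD 0.01 in PMG+AL medium with 23 nL pinned compound. After 24 h at 30 °C and 99% humidity, viability was read by BacTiter-Glo luminescence.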
# NS1 function inh: blocks influenza NS1 protein function; Potency, µM (highest dose often 46.1 µM), without a hit: top-dose activity, positive = more growth; 0.4% of 270,000 active; S. cerevisiae slowed by influenza A NS1, growth recovery by OD600; also: actives are rising curves; nearly all actives have a fitted effect of over 50% in size
#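 Compounds were scored for reversing the slow growth caused by influenza A NS1 in S. cerevisiae, measured by optical density at 600 nm. Assay medium contained 2% galactose at pH 6.0; NS1-free yeast of the same strain were the positive control.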
# Marburg entry inh: Marburg virus entry inhibition. Marburg virus pseudotyped entry inhibition, cell reporter; control for the full effect not named in the record; about a third of the inactives were read at about 46 µM. Potency, µM (series often up to 37.8 µM), without a hit: at the highest dose activity change, negative = inhibition, usual class: inhibitors. 1.8% of 300,000 active. AID 540276; active = well fitted inhibition curve with a large enough effect; inconclusive = small, poorly fitted or top-dose-only effect, or effect the other way; inactive = flat fitted curve, though single readings scatter; tested in HEK293 cells; about a fifth of its hits are not listed in these tables; also: % is scaled to controls: 0 for no effect and ±100 for the full control effect; luciferase read-out
# LASV entry inh: inhibitors of Lassa virus binding or cell entry | Potency, µM (highest dose often 37.9 µM), inactives show top-dose activity change, negative = inhibition, usual class: inhibitors | Lassa virus pseudotype entry inhibition, cell reporter; control for the full effect not named in the record | 1.2% of 300,000 active | AID 540256; active means well fitted inhibition curve with a large enough effect; inconclusive means small, poorly fitted or top-dose-only effect, or effect the other way; inactive means flat fitted curve, though single readings scatter; tested in HEK293 cells; also: % is scaled to controls: 0 for no effect and ±100 for the full control effect; nearly all actives have a fitted effect of over 50% in size; luciferase read-out
# Cruzain inh Det: blocks cruzain activity in presence of Triton detergent | 0.43% of 200,000 active | Potency, µM, without a hit: max response, negative = inhibition, most hits filed as inhibitors | P25779 | purified cruzain, Z-FR-AMC fluorescence, 0.01% Triton; active = well fitted curve in the direction sought with a large enough effect; inconclusive = small, poorly fitted or top-dose-only effect, or another doubt; inactive = no such curve, though single readings can be large; an effect the other way counts as inactive or inconclusive;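 also: plate controls were neutral wells for no effect and buffer without enzyme for full effect; nearly all actives have a fitted effect of over 40% in size; top concentration of the series not given in the record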
# Target sequence (P25779 123-467 limits assumed): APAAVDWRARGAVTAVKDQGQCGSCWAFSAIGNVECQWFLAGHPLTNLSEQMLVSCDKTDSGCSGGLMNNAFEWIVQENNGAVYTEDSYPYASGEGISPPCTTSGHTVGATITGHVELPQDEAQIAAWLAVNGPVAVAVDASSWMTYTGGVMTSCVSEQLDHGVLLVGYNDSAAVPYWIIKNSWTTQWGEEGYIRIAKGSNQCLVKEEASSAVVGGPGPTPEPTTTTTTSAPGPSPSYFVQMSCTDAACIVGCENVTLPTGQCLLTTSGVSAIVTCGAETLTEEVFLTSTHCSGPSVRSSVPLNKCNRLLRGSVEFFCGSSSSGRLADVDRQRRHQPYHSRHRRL
#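 In this qHTS format, compounds are incubated with 1.5 nM cruzain for 15 min at room temperature before 2 uM Z-FR-AMC is added. Release of AMC is followed at 360/450 nm, and progress is taken as the 60 s fluorescence difference.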
# 2A StopGo: FMDV 2A StopGo reporter, luciferase signal | human cells with a luciferase reporter of 2A StopGo recoding; control for the full effect not named in the record | 1.2% of 410,000 active | Potency, µM (doses to about 57.9 µM), without a hit: top-dose signal change, negative = less light; active = well fitted falling curve with a large enough effect; inconclusive = small, poorly fitted or top-dose-only effect; inactive = no such curve, though single readings can be large or run the other way; tested in HEK293T cells; also: % is scaled to controls: 0 for no effect and ±100 for the full control effect; nearly all actives have a fitted effect of over 45% in size; luciferase light after 4 h
# Cruzain noTriton: cruzain (T. cruzi) inhibition without detergent; P25779; purified cruzain, Z-FR-AMC fluorescence, no detergent; Potency, µM, without a hit: max response, negative = inhibition, usual class: inhibitors; 2.3% of 200,000 active; AID 1476; active = well fitted curve in the direction sought with a large enough effect; inconclusive = small, poorly fitted or top-dose-only effect, or another doubt; inactive = no such curve, though single readings can be large; an effect the other way counts as inactive or inconclusive;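 also: plate controls were enzyme without inhibitor for no effect and buffer without enzyme for full effect; nearly all actives have a fitted effect of over 40% in size; top concentration of the series not given in the record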
#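 Detergent-free condition (0.00005% Triton X-100) in acetate buffer pH 5.5 with DTT. 1.5 nM enzyme and compound were pre-mixed 15 min, then 2 uM Z-FR-AMC substrate added; reaction progress from fluorescence change between first and third reads (60 s).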
# SARS PLP yeast: inhibitors of SARS-CoV papain-like protease in yeast; S. cerevisiae expressing SARS-CoV PLpro, growth rescue; control for the full effect not named in the record; Potency, µM (titrated, usually from 32.9 µM), inactives show top-dose activity, positive = growth rescue; 0.19% of 330,000 active; also: 0% is about no effect; nearly all actives have a fitted effect of over 55% in size; growth read by luminescence after 48 h
# Numbers without * were called inactive; ? = inconclusive; / = no result given; & = joins results of further samples; [ ] = another dose, or the depositor's remark. Unless noted, calls follow the shape of the dose curve; as a rule, active means well fitted rising curve with a large enough effect; inconclusive means small, poorly fitted or top-dose-only effect; inactive means no such curve, though single readings can be large or run the other way. Potency is read from the fitted curve at half-maximal effect. Random draw from the library; any-hit rate near 4.7%.
SMILES,RE007 growth inh,NS1 function inh,Marburg entry inh,LASV entry inh,Cruzain inh Det,2A StopGo,Cruzain noTriton,SARS PLP yeast
Cc1cc(C)c(C(=O)CN2C(=O)NC3(CCC(C)CC3)C2=O)cc1C (stereo unspecified),-5%,/,?,1%,/,-3%,/,0%
CCc1nnc(NC(=O)CSc2nnc(CNc3ccc(OC)cc3)n2C)s1,-24%,3%,-21%,12%,1.9%,21%,5%,11%
O=C(NC1CC1)c1ccc(CSCc2ccccc2Cl)o1,-1%,-21%,/,/,/,-23%,/,-4%
COc1ccc(-n2c(Cc3cccn3C)nnc2SCC(=O)Nc2ccc(F)cc2)cc1,-11%,?,?,0%,-6.5%,4%,30%,7%
CCSc1nnc(NC(=O)CSc2c(Cl)cccc2Cl)s1,-2%,9%,-3%,-1%,-1.5%,-22%,-1%,-1%
O=C(COC(=O)c1ccncc1)Nc1cc(Cl)ccc1Cl,-10%,-12%,-3%,2%,-0.4%,0%,-7%,7%
CC(=O)Nc1ccc(S(=O)(=O)Nc2ccc3c(c2)OCCO3)cc1,-1%,4%,-14%[46.1 µM],?,/,-12%,/,0%
CCN(CC(=O)NCc1ccc(F)cc1)C(=O)c1cc2ccccc2o1,10%,0%,?,?,/,-4%,/,2%
Cc1c(Cl)cccc1NC(CC(=O)c1ccccc1)C(=O)O (stereo unspecified),1%,-6%,-4%,?,-1.4%,26%,-5%,-17%
Cc1cccc(Cc2c(C)nc3nc(SCC(=O)NC4CCCCC4)nn3c2C)c1,/,/,?,?,-3.8%,-12%,2%,/
Cc1oc2cc(OC(C)C(=O)O)ccc2c(=O)c1Oc1ccccc1 (stereo unspecified),43%,-6%,-4%[46.1 µM],-1%,5.9%,10%,-4%,-10%
C/C(=N/OC(=O)c1c(-c2ccccc2Cl)noc1C)c1cnccn1,9%,-5%,-12%[46.1 µM],?,/,-8%,/,0%
CN(C)/C=C(\C#N)C(=O)c1cccnc1Oc1cccc(F)c1,-1%,-10%,12%,11%,9.6%,-10%,-3%,-27%
Cc1ccc(C(=O)OCC(=O)N2CC(C)OC(C)C2)cc1 (stereo unspecified),24%,5%,0%[46.1 µM],?,/,-14%,/,-2%
O=C1CCCC(=O)C1=C1SCCCS1,40%,5%,?,2%,-6.3%,3%,-5%,2%
COc1cccc(NC(=O)CN2CCN(CC(=O)Nc3ccc(F)cc3)CC2)c1,10%,-2%,6%[46.1 µM],8%[46.1 µM],/,-10%,/,-1%
Cc1nc2ncnn2c(N2CCN(C(=O)Cc3cccs3)CC2)c1C,-4%,-4%,?,5%,-4.5%,-3%,-2%,/
CCOc1cc(/C=N/O)cc(Br)c1OCC(=O)NCc1ccccc1,4%,-20%,13%,-13%,-10%,-12%,-16%,-2%
CCCc1cc(=O)oc2c(C)c(OCC(=O)N3CCC(C(=O)O)(c4ccccc4)CC3)ccc12,3%,26%,/,/,/,-19%,/,-4%
OCc1cccc[n+]1CCc1ccccc1,7%,/,8%[46.1 µM],3%,/,-8%,/,/
O=[N+]([O-])c1cccc2ccc(/C=C/c3ccc(F)cc3)nc12,-21%,5%,1%,16%,-5.9%,41%[activator],-10%,11%
COCCn1c(C)cc(C(=O)CSc2ccc(NC(C)=O)cc2)c1C,9%,-18%,-12%,-9%,-0.1%,13%,-3%,-3%
CCOC(=O)N1CCN(CC(=O)Nc2c(C(=O)OC)[nH]c3ccccc23)CC1,-3%,-24%,8%,-8%,0.1%,/,12%,2%
CCOc1ccc(/C(O)=C2/C(=O)C(=O)N(CCOCCO)C2c2ccccc2)cc1 (stereo unspecified),-8%,13%,-4%,10%,-5.4%,9%,-20%,-2%
Cc1nn(C)c(Oc2ccccc2)c1CCNS(=O)(=O)c1ccccc1,-2%,-10%,?,?,-2.5%,-3%,-1%,1%
CCC(OC(=O)CN1C(=O)C(=O)c2ccccc21)C(=O)Nc1ccc(S(N)(=O)=O)cc1 (stereo unspecified),4%,/,3%[46.1 µM],0%[46.1 µM],/,-4%,/,5%
Cc1ccc(NC(=O)C2CCN(S(=O)(=O)c3ccc4c(c3)OCCO4)CC2)nc1,-9%,/,-10%,8%,/,?,/,5%
Cn1cccc1/C=N/NC(=O)C12CC3CC(CC(C3)C1)C2,9%,7%,?,13%,-3.3%,-4%,-9%,-11%
CCCCn1c(=O)nc2n(-c3ccc(Cl)cc3)c3ccccc3cc-2c1=O,-14%,6%,6%,14%,-3.1%,-15%,-25%,2%
COc1ccc(NC(=O)C(=O)NCC(c2ccc3c(c2)OCO3)N2CCN(C)CC2)cc1 (stereo unspecified),/,/,/,-28%[46.1 µM],-1.5%,-9%,2%,/
COc1ccccc1Cn1c(-c2ccccc2OC)nc2ccccc21,7%,-32%,3%,19%,-3.1%,?,8%,-40%
CCCOc1ccc(-c2nc(SCC(=O)c3ccc(Cl)cc3)n[nH]2)cc1,/,/,29%[46.1 µM],?,1.3%,-6%,10µM*,/
CSC(=Nc1ccccc1)N=C(SCc1ccccc1)N(C)C,-16%,/,?,13µM*,/,?,/,/
CC(C)(C)c1nc2sc3c(c2c(=O)o1)CCCC3,-18%,-7%,?,-1%,0.6%,-5%,1%,-10%
CCC(C)(C)NC(=O)C(c1ccc(C)cc1)N(Cc1ccco1)C(=O)CCC(=O)Nc1nccs1 (stereo unspecified),1%,7%,0%[46.1 µM],8%,-4.3%,0%,8%,5%
Cc1ccc2c(Sc3ccc(Cl)cc3)c(C(=O)N3CCC(C)CC3)[nH]c2c1,/,/,-1%[46.1 µM],-20%[46.1 µM],-1.3%,79%[activator],-12%,/
O=C(Nc1nnc(S(=O)(=O)N2CCCc3ccccc32)s1)c1cccc(Cl)c1,/,/,/,-4%[46.1 µM],-1.6%,0%,10%,/
CCCOc1ccc(/C=C/C(=O)N2CCOCC2)cc1,-1%,-1%,/,/,/,12%,/,-2%
CCOC(=O)/C=C/C(=O)Nc1cc(S(=O)(=O)Nc2ccc(OC)cc2)ccc1N1CCOCC1,-4%,/,?,?,/,32µM*,/,1%
O=C(NCc1ccco1)c1ccc(=O)[nH]n1,-5%,6%,0%&0%[46.1 µM],18%,3.3%,-4%,3%,-7%
O=C(NCCCN1CCOCC1)C(=O)N/N=C/c1c(Cl)cccc1Cl,0%,-2%,-13%[46.1 µM],2%,/,20%,/,0%
CCN(CC)S(=O)(=O)c1ccc(N2CCCC2)c(NC(=O)Cc2ccccc2)c1,9%,-7%,/,/,/,-1%,/,-1%
CCN(CC)S(=O)(=O)c1ccc(C(=O)NC(=S)N(CCC#N)Cc2cccnc2)cc1,-5%,/,?,21%[46.1 µM],/,12%,/,-1%
COc1ccc(CNC(=O)C(=O)Nc2cc(Cl)ccc2OC)cc1,/,/,/,2%[46.1 µM],0.0%,-23%,-1%,/
O=C(Nc1ncccc1O)c1cc2ccccc2o1,?,/,?,1.3µM*,/,?,/,-1%
CC(C)(C)NS(=O)(=O)c1cc(C(=O)Nc2sccc2C#N)ccc1Cl,-5%,6%,?,?,-10%,-25%,-24%,24%
Cc1cnc(C)c(N2CCC(C(=O)NCc3cccs3)CC2)n1,-6%,0%,?,5%,4.3%,-13%,-9%,1%
CC(C)(C)C(=O)/C=C(\N)c1ccccn1,-21%,-4%,?,4%,1.8%,22%,3%,-6%
COc1cccc(OCc2nnc(SCC(=O)NNC(=O)C3CCCCC3)n2C)c1,-2%,/,14%[46.1 µM],-11%,/,4%,/,1%
COCCNC(=O)C(=O)NCC(c1cccnc1)N1CCN(c2ccccc2OC)CC1 (stereo unspecified),/,/,/,?,-14%,-21%,?,/
CCC(=O)Nc1nc2ccc(NC(C)=O)cc2s1,-8%,-1%,-8%,1%,3.9%,70%[activator],8%,-7%
Cc1ccc2c(c1)N(C(=O)CCC(=O)Nc1ccccc1Cl)CC(C)O2 (stereo unspecified),6%,-7%,6%[46.1 µM],1%[46.1 µM],-0.5%,0%&-5%,-9%,-7%
COc1cccc(OCC(=O)O/N=C(\N)c2ccncc2)c1,31%,-4%,8%[46.1 µM],11%,/,78%[activator],/,-3%
O=C(COc1ccccc1)NCCc1nc2ccccc2[nH]1,-11%,-4%,-13%,1%,16µM*,0%,1µM*,4%
CC1CN(Cc2nc3c(c(=O)n(C)c(=O)n3C)n2CCCc2ccccc2)CC(C)O1 (stereo unspecified),3%,-14%,-1%[46.1 µM],10%,/,-21%,/,/
CCOC(=O)CN(C(=O)COc1nc(C)cc(C)c1C#N)c1cccc(Cl)c1,-9%,4%,1%[46.1 µM],-2%,/,-14%,/,-1%
O=C(O)c1ccc(N=Nc2c(O)ccc3ncccc23)cc1,-20%,-46%,/,/,/,5.6µM*,/,-4%
Cc1ccc(-c2nnc(SCC(N)=O)nc2-c2ccc(C)cc2)cc1,1%,2%,?,/,/,-3%,/,-2%
CCCS(=O)(=O)c1c(S(=O)(=O)CCC)c2c3ccccc3ccn2c1C(=O)OC,-7%,27%,?,?,-8.0%,-28%,?,-6%
Cc1ccc2c(c1)N(C(=O)CCC(=O)N1CCOCC1)CC(C)O2 (stereo unspecified),-8%,1%,/,/,/,-24%,/,-4%
# Remaining list, next part:
SMILES,RE007 growth inh,NS1 function inh,Marburg entry inh,LASV entry inh,Cruzain inh Det,2A StopGo,Cruzain noTriton,SARS PLP yeast
CCOc1ccccc1NC(=O)C1CCN(S(=O)(=O)c2c(C)noc2C)CC1,7%,-8%,-6%[46.1 µM],4%,3.3%,-26%,-4%,28%
COC(=O)CCNc1n[nH]c(=O)[nH]c1=O,0%,/,9%[46.1 µM],9%,/,-5%,/,0%
CCCn1c(SCc2nc(-c3ccc(OC)cc3OC)no2)nnc1-c1ccc(Cl)cc1,/,/,-1%[46.1 µM],-7%[46.1 µM],-9.6%,-5%,?,/
CCC1CCCCN1CC(=O)Nc1cc(C)c2c(=O)oc3ccccc3c2n1 (stereo unspecified),/,/,4%[46.1 µM],6%[46.1 µM],-1.6%,-3%,-14%,/
Cc1cc(C)c(C#N)c(SCc2ccc(F)cc2)n1,-11%,-3%,/,/,/,-2%,/,0%
COc1ccccc1N1CCN(C(=O)c2ccc(Cl)c(S(=O)(=O)N3CCCC3)c2)CC1,1%,/,?,?,/,20µM*,/,-4%
